NPYLR7 agonist – agonists of mosquito NPYLR7 receptor, primary screen, cell-based, Aedes aegypti, calcium fluorescence, mosquito biting behavior. activation, % at 10 µM. AID 1259423, 2018. Aedes aegypti neuropeptide Y-like receptor 7 (NPYLR7). HEK293T NPYLR7/Galpha15, GCaMP6s calcium fluorescence. 270,000 compounds, 0.15% hits; in the data active = activation above about 40%;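 note: 0% = vehicle and 100% = reference agonist at the receptor; some compounds past the cut are filed as inactive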
NPYLR7 agonist max-min – also measured in NPYLR7 agonist; calls as there; activation, %; measured here: Max-Min RFU normalised activation; some inactives read as strong as hits;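 span of the calcium signal over five minutes; 0% = vehicle and 100% = native peptide agonist; compound fluorescence can raise it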
Starred values were filed as active, the others as inactive; & = joins results of further samples.

SMILES	NPYLR7 agonist	NPYLR7 agonist max-min
CN(Cc1cc(-c2cccnc2)no1)Cc1ncccc1C(=O)O	13.4	9.5
COCOc1cccc(CN2CCC2(C)C(=O)N2CCN(C(=O)c3ccco3)CC2)c1 (configuration not stated)	10.9	6.4
COc1ccc(CCC(=O)Nc2c(C)nc3sccn3c2=O)cc1	-8.8	-8.9
COc1ccc(CN2CCNC(=O)C2CC(=O)N2CCCCC2)c(C)c1C (configuration not stated)	15.3	9.1
Cc1ccccc1CSc1nc(=O)n(Cc2cccnc2)c2c1CCC2	-1.6	-3.7
CCc1cccc(CC)c1Nc1nc(Cl)c(C=O)s1	-2.9	-5.2
Cc1cccc2c1N(C(=O)C1CCN(S(=O)(=O)c3ccccc3F)CC1)CCC2	1.5	1.0
CCc1sc(C(=O)N2CCCC2C(=O)N2CCN(C)CC2)cc1C (configuration not stated)	14.4	10.6
COc1ccc(-c2nc3cc(C)ccn3c2NC(=O)C2CCCCC2)cc1	-8.3	-4.5
CCOC(=O)c1ccc(NC(=O)N(CCOC)CC(=O)N(Cc2ccc3c(c2)OCO3)Cc2cccs2)cc1	9.4	14.2
COc1ccc(NC(C)=O)cc1NC(=O)c1ccc(Cl)s1	-5.0	-3.9
CCc1nc(C)ccc1OCC(=O)N1CCC(c2n[nH]c(=O)n2CC)CC1	14.1	8.5
CS(=O)(=O)Oc1cccc(CN(Cc2ccco2)C(=O)c2cccs2)c1	-5.2	2.4
CNC(=O)CN(C)c1nc(-c2ccccc2C(F)(F)F)cs1	2.4&-22.9	2.0&-24.8
CS(=O)(=O)CCC(C(=O)OCC(=O)c1ccc(F)cc1)N1C(=O)c2ccccc2C1=O (configuration not stated)	3.4	2.0
N#Cc1cc([N+](=O)[O-])ccc1Nc1ccc2cn[nH]c2c1	4.1	10.9
Cc1c(C)n2c3c(=O)n(Cc4ccc(F)cc4)c(=O)n(C)c3nc2n1C	-8.4	-9.2
Cc1cccc(COC(=O)CNC(=O)NCc2ccc(F)cc2)c1	0.4	-0.7
Cc1cccn2c(=O)c(C=Nc3ccccc3)c(Nc3ccccc3)nc12	16.2	21.6
COCCn1c(C)cc(C(=O)Cn2nc(C)c([N+](=O)[O-])c2C)c1C	10.1	12.6

Random excerpt: two compounds from above.
SMILES	NPYLR7 agonist	NPYLR7 agonist max-min
COc1ccc(CCC(=O)Nc2c(C)nc3sccn3c2=O)cc1	-8.8	-8.9
COCCn1c(C)cc(C(=O)Cn2nc(C)c([N+](=O)[O-])c2C)c1C	10.1	12.6

(continued)
SMILES	NPYLR7 agonist	NPYLR7 agonist max-min
Nc1cc(-c2ccc3c(c2)OCO3)ccn1	6.9	2.9
Cc1ccc(C)c(Sc2ncccc2C(N)=O)c1	0.1	-1.0
O=C(O)c1cccc(N2C(=O)C3CC=CCC3C2=O)c1 (configuration not stated)	-1.3	-7.0
CC(NC(=O)c1cccnc1N(C)C)c1ccccc1 (configuration not stated)	1.2	1.2
CC(C)c1cc(C2CCN(C(=O)C3=NN(C)C(=O)CC3)CC2)[nH]n1	12.0	9.3
c1ccc(CN(Cc2nc(-c3ccccc3)no2)CC2CCC2)cc1	7.9	4.9
CN(Cc1ccccc1)c1cc(C(C)(C)C)nc(SCc2cccc(C(=O)N3CCCC3)c2)n1	2.0	9.7
O=P1(NN=Cc2ccc(O)cc2)C=C(c2ccccc2)OC(c2ccccc2)=C1	5.4	5.4
N#Cc1ccc(CC(C#N)c2ccccc2)cc1 (configuration not stated)	17.3	13.1
O=C(Nc1ccc2ccccc2n1)C1CCCN(C(=O)N2CCCC2)C1 (configuration not stated)	2.0	0.2
Cc1ccccc1OCC(O)CN(Cc1ccc(F)cc1)Cc1cccs1 (configuration not stated)	16.1	21.5
O=C(Nc1ccc(Cl)c2c1C(=O)c1ccccc1C2=O)c1ccc([N+](=O)[O-])cc1Cl	-4.1	-10.7
O=c1c(Cl)c(NC2CC2)cnn1-c1ccccc1	-1.1	-1.1
Fc1ccccc1OCCNC1CCC2(CCNCC2)CC1	19.8	8.0
CNS(=O)(=O)Cc1ccccc1CNC(=O)c1ccccc1SC	6.6	5.5
COc1ccc(C(=O)N2CCC(Cc3ccc(-c4ccccc4)cc3)CC2)c(OC)c1	1.7	11.1
COc1cccc(C(=O)Nc2c3c(nn2-c2cccc(C)c2C)CS(=O)(=O)C3)c1OC	4.5	2.1
CC1=CCC2COC(c3ccccn3)C1C2 (configuration not stated)	11.5	1.7
Cc1onc(-c2c(F)cccc2Cl)c1C(=O)N[C@@H]1C(=O)N2C(C(=O)O)C(C)(C)S[C@H]12 (some centres not stated)	-0.5	-8.4
CN1OC(C)(CC(=O)NCc2ccc(Cl)cc2)N=C1c1ccc(N(C)C)cc1 (configuration not stated)	9.3	3.5
O=C(c1ccc(Cl)cc1)N1CCOC(COCc2ccccc2)C1 (configuration not stated)	25.0	31.3
COCCn1c(O)c(C(C)=Nc2sc3c(c2C#N)CCC3)c(=O)[nH]c1=S	4.7	2.4
CCN1CCC(C(=O)NC(c2ccccc2)c2ncccc2C)CC1 (configuration not stated)	9.4	0.6
CNC(=O)[C@H]1CN(C(=O)c2ccc3c(c2)OCO3)[C@]2(C)C(=O)N(CC3CC3)c3ccccc3[C@H]12	-9.3	1.0
Cc1ccc2nc(COCC(=O)N3CCOC(C(F)(F)F)C3)[nH]c2c1 (configuration not stated)	8.8	7.3
CCCn1c(=O)c2c(nc3n(CCCOC)c(C)c(C)n23)n(C)c1=O	1.4	13.9
C[C@H](NC(=O)c1ccc(Cl)cc1)C(=O)NNC(=O)c1cccs1	11.0	8.7
Cc1cc(Cl)ccc1-n1ncc(C(=O)NCC(C)(C)CN(C)C)c1N	-0.6	5.5
O=C(NCCCN1CCN(Cc2ccccc2)CC1)N1CCc2ccccc21	14.0	11.2
COc1ccccc1N(CCCN1C(=O)c2cccc3cccc(c23)C1=O)C(C)=O	3.9	13.3
CCn1c(=O)c(C(=O)N2CCOCC2)nn(-c2ccc(S(C)(=O)=O)cc2)c1=O	-4.7	8.4
C=c1occc1=C1NN=C(SCC(=O)c2cc(C)n(CC(F)(F)F)c2C)O1	15.8	20.9
Cc1noc(-c2cccnc2)c1C(=O)NCc1ccccc1Cl	3.4	-3.1
CN1CCN(C(CNC(=O)NC2CCCCC2)c2ccc3c(c2)CCN3C)CC1 (configuration not stated)	-4.4	-11.6
C=CCc1cccc2cc(C(=O)NCCCN3CCOCC3)c(=O)oc12	11.7	10.9
COc1cc(C=C2CCC/C(=C\c3ccc(O)c(OC)c3)C2=O)ccc1O	-20.2	-28.6
CC(C(=O)NC1CCCCC1)N1CCN(CC(=O)Nc2ccccc2C(F)(F)F)CC1 (configuration not stated)	11.5	10.3
CCONC(=O)CCc1c(C)nc2c(cnn2C(C)C)c1C	-2.0	-4.8
Nc1[nH]c(=O)ncc1F	-9.6&0.3	-16.3&-1.6
NC(=O)c1cnccn1	-4.0&-1.4&-5.8&1.0	-9.2&-8.4&-8.6&13.8
CC(O)c1cccc(NC2(c3ccccc3)C(=O)c3ccccc3C2=O)c1 (configuration not stated)	-0.1	-0.1
CC(C)Cc1nc(N2CCCN(C(=O)CCc3ccccc3)CC2)c2c(-c3cccc(C(F)(F)F)c3)noc2n1	15.6	10.5
CCc1nc2ccc(C(=O)N(C)Cc3ccccc3)cn2c1N(CC)CCN(C)C	-2.1	-3.1
COc1ccc2[nH]c(CN3CCCC(N4CCc5ccccc5C4)C3)c(C)c2c1 (configuration not stated)	15.3	4.7
O=C(c1cc(COc2cncc(Cl)c2)on1)N1CCCCC1c1ccc(F)cc1 (configuration not stated)	4.3	1.4
COCCNCc1nn(-c2ccc(F)cc2)c2c1CN(Cc1ccc(F)cc1)CC2	22.6	7.6
COc1ccccc1CN(CCc1c[nH]c2ccccc12)C(=O)CN(C(=O)C(c1ccccc1)c1ccccc1)C1CC1	11.1	9.5
Cc1ccc(C(N)=NOC(=O)Cc2cccc3ccccc23)cc1	-7.6	-14.6
NC(=O)c1ccsc1NC(=O)COC(=O)Cc1ccc(Cl)c(Cl)c1	1.5	0.4
O=C(Nc1ccc(-c2ccco2)cc1)C1CCCN(Cc2coc3ccccc3c2=O)C1 (configuration not stated)	0.0	-2.8
COCCCn1c(-c2ccc(OC)cc2)nc2c(c(=O)c3ccccc3n2C)c1=O	-0.7	-3.3
C=C=CSc1nnnn1-c1ccc(Cl)cc1	2.4	-1.5
CC(=O)NC(CCS(C)(=O)=O)C(=O)Nc1nccs1 (configuration not stated)	14.1	6.8
O=C(CCCn1nc(-c2ccc(F)cc2)ccc1=O)Nc1ccc(F)c(F)c1	7.1	6.5
COCCN1CCC(CN2CCN3C(=O)CNC(=O)C3C2)CC1 (configuration not stated)	1.8	1.5
c1nc(N2CCCC2c2nnc3n2CCCCC3)c2sccc2n1 (configuration not stated)	1.1	-1.9
CCC1CN(S(=O)(=O)N2CCCCC2)CCO1 (configuration not stated)	-1.2	0.1
CC1CCCCC1NC(=O)c1cc2c(=O)n3ccccc3nc2n1C (configuration not stated)	0.4	-1.2
CCOC(=O)N1CCN(c2cc(Oc3cc(C)ccc3Cl)ncn2)CC1	-10.0	-8.0
CCCC1(CCC)NC(=O)N(CC(=O)c2[nH]c(C)c(C(=O)OCC)c2C)C1=O	0.2	19.8
Following part:
SMILES	NPYLR7 agonist	NPYLR7 agonist max-min
COCCN(Cc1nc(C(=O)O)cs1)C(=O)Nc1ccc(OC)cc1	0.6	-10.6
CN(Cc1ccccc1)C1CCCN(C(=O)CSc2ccccc2)C1 (configuration not stated)	0.2&-1.2	-1.9&-7.2
CC1CCN(C2=NS(=O)(=O)c3ccccc32)CC1	0.6	4.4
CCNC(=O)N(Cc1ccc(N(CC)CC)cc1OS(=O)(=O)CC)C(C)CC (configuration not stated)	21.5	20.2
Cc1ccc(NC(=O)C2CC2)cc1NC(=O)NCc1ccc(N(C)C)cc1	1.0	-1.3
CC1(C)Cc2ccc(C(=O)NCc3nnc4n3CCCC4)c(O)c2O1	3.6	4.3
Fc1ccc(CN2CCCC3(CCN(C4CCN(Cc5ccccn5)CC4)C3)C2)cc1 (configuration not stated)	6.4	5.9
Cc1ccc(NC(=O)N2CCc3nc(-c4ccccc4)nc(N4CCCC4)c3C2)cc1Cl	22.1	20.3
Cc1nn(-c2ccccc2)c(C)c1CC(=O)N1CCC2(CCCO2)CC1	8.8	6.4
COc1ccc(OC)c(S(=O)(=O)N2CCN(c3ncccc3C(=O)NCc3ccc4c(c3)OCO4)CC2)c1	21.2	14.2
Cc1ccc2[nH]nc(-c3ccc(F)c(CO)c3)c2c1	-4.7	-9.3
CCOC(=O)c1sc2nc(C)n(N=Cc3ccco3)c(=O)c2c1C	0.9	-2.9
CC(C)N(C(=O)CN1CCCC1c1ccc(O)cc1)c1ccccc1 (configuration not stated)	-0.7	-2.7
CN(c1cccc(Cl)c1)S(=O)(=O)c1cccc(C(=O)Nc2ncccn2)c1	7.8	1.5
CCCn1c(CN2CCOCC2)nc2c1c(=O)n(C)c(=O)n2C	6.3	2.2
COCCn1c(N2CCN(Cc3ccc(Br)cc3)CC2)nc2c1c(=O)[nH]c(=O)n2C	-0.2	26.1
N#Cc1c(F)cccc1N1CCCC1CN1CCCC1CO (configuration not stated)	2.5	-1.8
O=C(O)CSc1c[nH]c2ccccc12	1.1	4.1
CC(C)CC(C)(CNC(=O)c1cnccn1)NC(=O)c1cnccn1 (configuration not stated)	0.0	0.2
COc1cccc(Cn2cccc2CN(Cc2ccccc2)C(=O)CN(CC(C)C)C(=O)Nc2ccc(Cl)cc2)c1	-3.5	8.8
CN(C)CCCN(C(=O)CCSc1ccccc1)c1nc2cc3c(cc2s1)OCO3	3.4	2.0
COCc1cc(N2CCN(Cc3ccccc3)CC2)nc(SCc2ccc(C(=O)NC3CC3)cc2)n1	-8.0	7.7
O=C(C1CCC1)N1CCN(C(c2ccccc2)c2ccc(F)cc2)CC1 (configuration not stated)	-4.2	0.2
CCOC(=O)C1=C(C)N(CCCCCC(=O)O)C(=O)NC1c1ccc(OC)cc1 (configuration not stated)	-10.1	-9.2
Cc1nc(CCC(=O)N2CCOC(C(F)(F)F)C2)n[nH]1 (configuration not stated)	4.3	-2.5
CCOc1ccc(C(=O)Nc2cc(C(=O)N3CCOCC3)cn(C)c2=O)cc1OCC	-11.8	-16.3
CC(C)c1nnsc1CN1CCOC(c2ccc(Cl)cc2)C1 (configuration not stated)	5.0	-0.5
CCOC(=O)C1=C(C)N=c2s/c(=C\c3ccc(Cl)cc3Cl)c(=O)n2C1c1ccccc1 (configuration not stated)	-3.6	-10.6
C=CCn1c(N)c(C(=O)NC2CCCCC2)sc1=S	0.0	-0.4

Part of the list above in order of length of the SMILES, high to low:
SMILES	NPYLR7 agonist	NPYLR7 agonist max-min
COc1cccc(Cn2cccc2CN(Cc2ccccc2)C(=O)CN(CC(C)C)C(=O)Nc2ccc(Cl)cc2)c1	-3.5	8.8
COCc1cc(N2CCN(Cc3ccccc3)CC2)nc(SCc2ccc(C(=O)NC3CC3)cc2)n1	-8.0	7.7
COCCn1c(N2CCN(Cc3ccc(Br)cc3)CC2)nc2c1c(=O)[nH]c(=O)n2C	-0.2	26.1
CCOc1ccc(C(=O)Nc2cc(C(=O)N3CCOCC3)cn(C)c2=O)cc1OCC	-11.8	-16.3
CN(c1cccc(Cl)c1)S(=O)(=O)c1cccc(C(=O)Nc2ncccn2)c1	7.8	1.5
CN(C)CCCN(C(=O)CCSc1ccccc1)c1nc2cc3c(cc2s1)OCO3	3.4	2.0
O=C(C1CCC1)N1CCN(C(c2ccccc2)c2ccc(F)cc2)CC1 (configuration not stated)	-4.2	0.2
CC(C)CC(C)(CNC(=O)c1cnccn1)NC(=O)c1cnccn1 (configuration not stated)	0.0	0.2
CCCn1c(CN2CCOCC2)nc2c1c(=O)n(C)c(=O)n2C	6.3	2.2
Cc1nc(CCC(=O)N2CCOC(C(F)(F)F)C2)n[nH]1 (configuration not stated)	4.3	-2.5
CC(C)c1nnsc1CN1CCOC(c2ccc(Cl)cc2)C1 (configuration not stated)	5.0	-0.5
C=CCn1c(N)c(C(=O)NC2CCCCC2)sc1=S	0.0	-0.4
N#Cc1c(F)cccc1N1CCCC1CN1CCCC1CO (configuration not stated)	2.5	-1.8
O=C(O)CSc1c[nH]c2ccccc12	1.1	4.1

Bioassay records deposited in PubChem by Fisher Drug Discovery Resource Center.

Not all compounds are listed; count on the stated rates, not on these rows.
